BJeLR viability – MLPCN primary cell-based screen for lethality selective to Ras in HRASV12 cells. BJeLR (HRASV12) viability, CellTiter-Glo ATP luminescence, 48 h; reference of the scale not given here. inhibition, % (test concentration not listed). actives 0.17% (n = 300,000). AID 1554, 2009;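 active = replicate mean above 50%; inconclusive = above 50% but judged a plate artefact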;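 also: 50 nL library stock added to about 25 µL; numbers are from one replicate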
ugtP null kill – growth inhibition of ugtP-null S. aureus, primary screen, RN4220 ugtP deletion, OD600; 16 h; some inactives read as strong as hits; growth inhibition, % (concentration not given with the values); actives 0.54% (n = 330,000);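 active = z-score under -3 and OD600 up to 0.15 on both plates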;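 also: plate controls were untreated wells for no effect and antibiotic for full effect; wells of about 80 µL received 100 nL stock; the first replicate is given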
RN4220 kill – growth inhibition of S. aureus RN4220, primary screen, OD600; 16 h; inhibition, % (test concentration not listed); actives 0.33% (n = 330,000); AID 1259311, 2017;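 active = z-score of -3 or lower and OD600 up to 0.18 on both plates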;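 also: plate controls were untreated cells for no effect and reference antibiotic for full effect; stock transfer was 100 nL into about 80 µL; one replicate is shown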
Mtb hypoxia inh – PubChem AID 1159583. M. tuberculosis hypoxia-regulated fluorescent reporter, fluorescence. fluorescence inhibition, % (concentration not given with the values). actives 0.1% (n = 300,000);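 active = 35 to 45% if threefold the growth effect, above 45% if 1.5-fold the growth effect; inactive = the rest, general growth blockers included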;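 also: wells of about 50 µL received 100 nL stock; 0% = vehicle wells and 100% = reference inhibitor wells; whole bacteria with a GFP reporter of the hypoxia response; strong numbers were not always called active; many hits fall short of the cut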
Bead autofluor – flagged as autofluorescent in microsphere protease counterscreen; compound autofluorescence counterscreen, microsphere flow cytometry; active compounds read high; fluorescence intensity (test concentration not listed); actives 3.1% (n = 360,000); AID 624483;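 active = at least 3 SD above the mean of all compounds, about 16000 in these data; inconclusive = too few beads counted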;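 also: 100 nL of 1 mM stock went into each well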
PrP UTR inh – inhibition of PrP 5' UTR reporter expression; cell-based PrP 5' UTR mRNA reporter, plate reader; AID 488862, 2010; actives 0.35% (n = 340,000); inhibition, % (no concentration beside the values);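 active = every replicate at 50% or more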;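 also: 0 = median of the neutral control wells; tested in H4 reporter cells; numbers are from one replicate; inactives centre near -14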
Mtb hypoxia inh growth – recorded beside Mtb hypoxia inh, whose call it bears; growth inhibition, %; measured here: M. tuberculosis growth (absorbance);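 0% = vehicle and 100% = reference antibiotic; read after six days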
Starred values were filed as active, the others as inactive; ? = inconclusive; · = no result given.

1	COc1cc(C(=O)Nc2cccc(-c3nc4cc(C)ccc4o3)c2)cc(OC)c1OC
2	CCCOc1ccc(/C(CC)=N/NC(=O)C2(C)CC2(Br)Br)cc1 (stereo unspecified)
3	O=C(CN1C(=O)C2CCCCC2C1=O)Nc1nc2ccc(F)cc2s1 (stereo unspecified)
4	COc1cc2c(cc1OC)C(C(=O)Nc1cc(C)c(OC)c(C)c1)CC(=O)N2 (stereo unspecified)
5	NC(=NS(=O)(=O)c1ccccc1)c1cccc([N+](=O)[O-])c1
6	Cc1ccc(OCC(=O)NNC(=O)Cn2nnc(-c3ccccc3)n2)cc1
7	O=S(=O)(NCC(c1cccnc1)N1CCN(Cc2ccccc2)CC1)c1ccc(Cl)cc1 (stereo unspecified)
8	COc1cccc(C=NNC(=O)c2nnn(-c3nonc3N)c2-c2cccs2)c1

entry no.,1,2,3,4,5,6,7,8
ugtP null kill,2,·,-4,-3,0,-1,4,17
Mtb hypoxia inh growth,3,·,-2,-4,10,7,8,-5
Bead autofluor,2381,9458,4238,3530,·,4343,6771,·
PrP UTR inh,-43,-42,-16,-19,·,-40,-30,·
RN4220 kill,8.0,·,2.4,-4.3,8.5,0.1,1.2,6.3
Mtb hypoxia inh,8,·,9,-1,8,11,-3,5
BJeLR viability,7,-17,-10,3,·,4,-1,·

9	CN(C)CCN1CC(O)=C(c2nc3ccccc3s2)C1=N
10	CCc1ccc(OCC(=O)N/N=C2\CC(=O)c3ccccc32)cc1
11	Cc1cc(NC(=O)C2CCCO2)ccc1Br (stereo unspecified)
12	O=C1NC(c2ccccc2Cl)=N/C1=C/c1ccco1
13	CCC(CC)c1nnc(NC(=O)C2CCCO2)s1 (stereo unspecified)
14	CN(C)S(=O)(=O)c1cccc(C(=O)Nc2ccc(Cl)cn2)c1
15	O=C(NNc1ccccn1)c1ccccc1CC[N+](=O)[O-]
16	CCCC(=O)NCc1ccc2c(c1)cc(C)n2C

entry no.,9,10,11,12,13,14,15,16
ugtP null kill,4,·,14,-4,·,-7,-6,-1
Mtb hypoxia inh growth,-2,·,0,2,·,2,-18,12
Bead autofluor,5359,?,3612,4349,4038,9464,3757,4194
PrP UTR inh,-9,-18,-3,-138,-16,-70,-23,-42
RN4220 kill,-1.4,·,7.2,1.8,·,-1.4,-2.7,2.7
Mtb hypoxia inh,24,·,-6,-6,·,1,-6,5
BJeLR viability,-16,1,10,-1,-6,-3,-7,-2

17	CO/N=C(/CS(=O)(=O)Cc1ccccc1Cl)c1ccc(Cl)cc1Cl
18	COC(=O)c1ccc(CN(C)S(=O)(=O)c2cccs2)cc1
19	CN(C(=O)c1cc(S(=O)(=O)N2CCCCC2)c[nH]1)C1CCCCC1
20	Nc1nonc1-n1nnc(C(=O)NN=Cc2cc(Br)ccc2O)c1CSC1=NCCS1
21	COc1ccc(S(=O)(=O)Nc2ccc(OCC(=O)O)cc2)c2ccccc12
22	CCN(Cc1ccccc1)S(=O)(=O)c1ccc2oc(C(=O)O)c(C)c2c1
23	Cn1c2ccccc2c(=O)c2ccc(C#Cc3ccccn3)cc21
24	COc1ccc(CCC(=O)Nc2ccc(S(=O)(=O)N3CCCC3)cc2)cc1OC

entry no.,17,18,19,20,21,22,23,24
ugtP null kill,·,-7,-4,-20,18,-1,-2,5
Mtb hypoxia inh growth,·,10,8,2,7,0,4,5
Bead autofluor,4409,6264,5753,·,3680,11392,·,3984
PrP UTR inh,-26,-24,-10,·,-29,·,·,-15
RN4220 kill,·,8.5,5.6,12,1.8,6.1,0.8,5.1
Mtb hypoxia inh,·,-7,3,0,18,1,-21,18
BJeLR viability,-7,-1,-6,·,5,7,-11,·

25	CN(C)c1ccc(NC(=O)CN2C(=O)c3ccccc3C2=O)cc1
26	CCc1nnc(NC(=O)COc2ccc(N(C)S(=O)(=O)c3ccc(C)cc3)cc2)s1
27	Cc1nc2ccccc2c(=O)n1NCc1cc(Br)cs1
28	COc1ccc(C)cc1-n1nnnc1SCC(=O)Nc1cc(C)on1
29	CCc1ccc(C(=O)COC(=O)CCc2nc3ccccc3c(=O)[nH]2)cc1
30	Cc1nccn1CC(=O)N/N=C/c1cccc(O)c1
31	Cc1c(C(=O)NCCSCc2ccc(Cl)cc2Cl)cccc1[N+](=O)[O-]
32	COc1ccc(C2(c3ccc(OC)cc3)NC(=O)N(CC(=O)NC3CCCC3)C2=O)cc1

entry no.,25,26,27,28,29,30,31,32
ugtP null kill,14,2,2,5,8,·,-11,4
Mtb hypoxia inh growth,11,5,9,9,5,·,·,-1
Bead autofluor,4403,4221,8164,9698,2577,2448,4619,?
PrP UTR inh,-22,2,-12,-35,-8,-20,-6,-17
RN4220 kill,1.7,6.9,2.3,2.4,0.6,·,-7.0,1.3
Mtb hypoxia inh,9,10,11,2,6,·,·,8
BJeLR viability,-6,2,-6,1,2,-9,31,1

13 neighbouring entries already listed, for reference:
19	CN(C(=O)c1cc(S(=O)(=O)N2CCCCC2)c[nH]1)C1CCCCC1
20	Nc1nonc1-n1nnc(C(=O)NN=Cc2cc(Br)ccc2O)c1CSC1=NCCS1
21	COc1ccc(S(=O)(=O)Nc2ccc(OCC(=O)O)cc2)c2ccccc12
22	CCN(Cc1ccccc1)S(=O)(=O)c1ccc2oc(C(=O)O)c(C)c2c1
23	Cn1c2ccccc2c(=O)c2ccc(C#Cc3ccccn3)cc21
24	COc1ccc(CCC(=O)Nc2ccc(S(=O)(=O)N3CCCC3)cc2)cc1OC
25	CN(C)c1ccc(NC(=O)CN2C(=O)c3ccccc3C2=O)cc1
26	CCc1nnc(NC(=O)COc2ccc(N(C)S(=O)(=O)c3ccc(C)cc3)cc2)s1
27	Cc1nc2ccccc2c(=O)n1NCc1cc(Br)cs1
28	COc1ccc(C)cc1-n1nnnc1SCC(=O)Nc1cc(C)on1

entry no.,19,20,21,22,23,24,25,26,27,28
ugtP null kill,-4,-20,18,-1,-2,5,14,2,2,5
Mtb hypoxia inh growth,8,2,7,0,4,5,11,5,9,9
Bead autofluor,5753,·,3680,11392,·,3984,4403,4221,8164,9698
PrP UTR inh,-10,·,-29,·,·,-15,-22,2,-12,-35
RN4220 kill,5.6,12,1.8,6.1,0.8,5.1,1.7,6.9,2.3,2.4
Mtb hypoxia inh,3,0,18,1,-21,18,9,10,11,2
BJeLR viability,-6,·,5,7,-11,·,-6,2,-6,1

29	CCc1ccc(C(=O)COC(=O)CCc2nc3ccccc3c(=O)[nH]2)cc1
30	Cc1nccn1CC(=O)N/N=C/c1cccc(O)c1
31	Cc1c(C(=O)NCCSCc2ccc(Cl)cc2Cl)cccc1[N+](=O)[O-]

entry no.,29,30,31
ugtP null kill,8,·,-11
Mtb hypoxia inh growth,5,·,·
Bead autofluor,2577,2448,4619
PrP UTR inh,-8,-20,-6
RN4220 kill,0.6,·,-7.0
Mtb hypoxia inh,6,·,·
BJeLR viability,2,-9,31

(list continues)
33	Cc1ccccc1/C=C/c1nc2ccccc2c(=O)[nH]1
34	COc1ccc(-n2cnc3sc4c(c3c2=O)CCCC4)cc1
35	O=C(NC1CCCCC1)c1ccccc1NC(=O)C1CC1
36	COc1ccc(-c2nnc3sc(CCN4C(=O)c5ccccc5C4=O)nn23)cc1
37	CC(C(=O)NCC1CCCO1)n1cc([N+](=O)[O-])cn1 (stereo unspecified)
38	COc1ccc2c(N)c(C(=O)NN)[nH]c2c1
39	Cc1ccc(S(=O)(=O)Cc2ccc(C(=O)N3CCc4ccccc4C3)o2)cc1

entry no.,33,34,35,36,37,38,39
ugtP null kill,4,-22,3,3,2,6,2
Mtb hypoxia inh growth,-1,6,-19,·,2,11,·
Bead autofluor,4970,2204,4398,4166,4422,2056,5459
PrP UTR inh,-144,-37,-8,-28,-4,1,-8
RN4220 kill,0.4,3.9,4.3,2.1,4.9,2.6,4.8
Mtb hypoxia inh,-4,0,4,·,4,15,·
BJeLR viability,11,-7,-1,-1,9,4,-2
